Compound activity from PubChem BioAssay.
GALR2 ag: agonists of human galanin receptor 2 (GALR2); GALR2-expressing cells, agonist activation read-out; 0.48% of 140,000 active; O43603; activation, %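 (tested at 5 µM)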;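 active = above mean plus 3 SD of all compounds, about 5% in these data, not always enough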;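 also: 0% = vehicle buffer wells and 100% = reference agonist at full effect; tested in CHO reporter cells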
Target sequence (O43603 whole entry, looked up): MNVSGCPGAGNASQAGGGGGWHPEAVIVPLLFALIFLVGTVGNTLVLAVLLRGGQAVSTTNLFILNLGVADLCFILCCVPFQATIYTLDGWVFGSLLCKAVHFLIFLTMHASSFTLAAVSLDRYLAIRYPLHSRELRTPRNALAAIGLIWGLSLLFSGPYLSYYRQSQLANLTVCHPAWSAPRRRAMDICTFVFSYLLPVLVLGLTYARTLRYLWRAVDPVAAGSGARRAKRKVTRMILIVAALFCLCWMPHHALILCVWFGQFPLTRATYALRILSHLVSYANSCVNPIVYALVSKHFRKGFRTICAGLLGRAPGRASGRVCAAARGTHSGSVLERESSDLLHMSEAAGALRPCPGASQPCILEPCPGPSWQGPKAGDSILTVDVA
RGS16-Gao HTS: regulators of human RGS16-Galphao interaction | O15492+P09471 | bead-based flow cytometry RGS16-Galphao binding, fluorescence; actives lie on both sides | binding response (% of control), % at 10 µM | 0.38% of 220,000 active | AID 1441;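 active = below 25% or above 175%, edge rows of some plates excepted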;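 also: Galphao activated by GDP with aluminum fluoride before binding; 100% = wells without compound and 0% = beads without RGS; some results beyond the cut were filed as inactive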
Target sequence (O15492 whole entry, looked up): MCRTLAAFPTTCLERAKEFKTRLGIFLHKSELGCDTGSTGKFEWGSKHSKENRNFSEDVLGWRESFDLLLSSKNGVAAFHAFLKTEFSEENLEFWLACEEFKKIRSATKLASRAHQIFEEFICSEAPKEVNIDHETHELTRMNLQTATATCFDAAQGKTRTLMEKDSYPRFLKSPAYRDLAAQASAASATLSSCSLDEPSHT
Target sequence (P09471 whole entry, looked up): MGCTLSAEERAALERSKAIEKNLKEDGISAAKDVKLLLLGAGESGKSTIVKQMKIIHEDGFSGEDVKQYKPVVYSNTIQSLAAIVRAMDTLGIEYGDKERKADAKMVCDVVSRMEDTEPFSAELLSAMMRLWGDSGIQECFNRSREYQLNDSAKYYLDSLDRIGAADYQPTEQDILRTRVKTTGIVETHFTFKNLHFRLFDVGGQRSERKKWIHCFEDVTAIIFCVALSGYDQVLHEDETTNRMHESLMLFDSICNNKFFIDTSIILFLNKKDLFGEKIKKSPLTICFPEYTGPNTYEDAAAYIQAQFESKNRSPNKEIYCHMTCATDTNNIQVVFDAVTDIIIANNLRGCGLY
PKD1 kinase inh: blocks activity of human protein kinase D1; AID 797; Q15139; 0.056% of 200,000 active; PKD1 kinase fluorescence polarization assay; inhibition, %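 (about 10 µM by stock and volumes)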;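 active = inhibition of 50% or more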;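 also: controls were vehicle for no effect and a reference inhibitor for full effect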
HSV replic up: increases HSV replication in cells. HSV replication augmentation in cells, fold increase. maximum fold increase. 0.005% of 220,000 active;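 active = peak rise of 1.5-fold or more in the series; tested in PC3 cells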;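 also: first round at 10 µM; read as green reporter fluorescence; hits show the peak of a series up to 25 µM; 1 = signal of infected wells without compound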
Insulin prom inh: TRM-6 insulin promoter activity inhibition. TRM-6 cells (human fetal islet line), insulin promoter-eGFP reporter, imaging; reporter expression induced with tamoxifen. inhibition, % at 2 µM. 0.9% of 130,000 active;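 active = inhibition above the mean plus 3 SD, with well images judged a real hit on visual review, cut at about 60% in these data, passing the limit was not always enough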
Insulin prom inh cell count: second read-out of Insulin prom inh, no call of its own (marks repeat the call); normalized cell count, %; measured here: cell count, toxicity; reference of the scale not given here;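 cells exposed to compound for 48 h; stained nuclei by imaging scaled within each plate; lower means fewer cells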
HSV replic up primary fold: further read-out of HSV replic up, marked with its call; fold increase; compound at 10 µM; measured here: primary screen fold increase 10 uM; tested in PC3 cells;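 GFP signal in the first replicate; 1 = infected wells without compound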
Active calls of the source: *; i = inactive; nt = not tested or not shown; & = joins results of further samples.

SMILES	GALR2 ag	RGS16-Gao HTS	PKD1 kinase inh	HSV replic up	HSV replic up primary fold	Insulin prom inh	Insulin prom inh cell count
CC(=O)Nc1cc(C(=O)NCCN2CCN(Cc3ccccc3)CC2)ccc1Sc1ccc(C)cc1	nt	115	-3	i	0.89	nt	nt
CCCC1C2C(=O)N(c3ccccc3OCC)C(=O)C2ON1c1ccccc1 (stereo not given)	-1.5	107	-4	i	0.96	47	113
O=CN1CCN(c2ncnc3c2nnn3Cc2c(F)cccc2Cl)CC1	nt	99	2	i	0.89	46	121
Cc1ccc(C)c(NC(=O)CN(C)C(=O)CCN2C(=O)c3ccccc3C2=O)c1	-1.4	93	-5	i	0.93	-12	174
CC(/C=C1\NC(=S)NC1=O)=C\c1ccccc1	nt	92	nt	i	0.85	nt	nt
Cc1cn(Cc2ccccc2Cn2cc(C)c(=O)[nH]c2=O)c(=O)[nH]c1=O	nt	94	nt	i	1	nt	nt
COc1cc(NC(=O)CSc2nnc(NC(C)C)s2)cc(OC)c1OC	nt	100	4	i	0.94	nt	nt
COc1ccc(-c2cc(C(F)(F)F)nc(-n3cncn3)n2)cc1	-0.6	101	-11	i	0.99	-4	93
Cc1ccc2c(c1)nnn2C1CCN(CC(=O)Nc2ccc(F)cc2)CC1	nt	104	nt	i	0.96	nt	nt
COc1ccc(OC)c(CCNC(=O)CC2Oc3ccc(C)cc3NC2=O)c1 (stereo not given)	-2.2	103	8	i	0.95	nt	nt
Cc1cccc(C)c1NC(=O)CS(=O)CC(=O)Nc1ccc(F)cc1F (stereo not given)	-0.9	99	2	i	1	44	116
CC(=O)Nc1cc[n+](C(C)C(=O)c2ccc(Br)cc2)cc1 (stereo not given)	nt	115	1	i	1.1	nt	nt
COc1ccccc1CNC(=O)c1ccccc1N	-0.8	106	5	i	1	-10	73
CCCOc1ccc(C(=O)NC(=S)Nc2nc(C)c(C(=O)N(C)C)s2)cc1	-3.9	99	-6	i	1	3	149
O=C(NC1CCCCC1)c1cc2nc3c(c(C(F)(F)F)n2n1)CCCC3	-1.1	104	-7	i	1	29	114
COc1ccccc1NC(=O)c1ccc(Cl)c(S(=O)(=O)N2CCOCC2)c1	-1.5	103	-4	i	0.9	-7	81
CCOc1ccccc1N(CC(=O)OC)S(=O)(=O)c1ccccc1	-1.8	131	-5	i	1.2	nt	nt
O=C1Nc2ccccc2S/C1=C/c1cccs1	nt	101	nt	i	0.97	nt	nt
CC(C)Nc1cc(N2CCCC2)ccc1[N+](=O)[O-]	-3.5	100	-1	i	0.88	nt	nt
O=C1CC(N2CCN(Cc3ccc4c(c3)OCO4)CC2)C(=O)N1c1cccc2ccccc12 (stereo not given)	nt	103	1	i	0.98	nt	nt

Single records, from the list above. Screens in order: GALR2 ag	RGS16-Gao HTS	PKD1 kinase inh	HSV replic up	HSV replic up primary fold	Insulin prom inh	Insulin prom inh cell count
CCCC1C2C(=O)N(c3ccccc3OCC)C(=O)C2ON1c1ccccc1 (stereo not given) across the screens: -1.5	107	-4	i	0.96	47	113
O=C1CC(N2CCN(Cc3ccc4c(c3)OCO4)CC2)C(=O)N1c1cccc2ccccc12 (stereo not given) across the screens: nt	103	1	i	0.98	nt	nt
COc1cc(NC(=O)CSc2nnc(NC(C)C)s2)cc(OC)c1OC across the screens: nt	100	4	i	0.94	nt	nt
O=CN1CCN(c2ncnc3c2nnn3Cc2c(F)cccc2Cl)CC1 across the screens: nt	99	2	i	0.89	46	121
CC(=O)Nc1cc(C(=O)NCCN2CCN(Cc3ccccc3)CC2)ccc1Sc1ccc(C)cc1 across the screens: nt	115	-3	i	0.89	nt	nt

Other records follow:
SMILES	GALR2 ag	RGS16-Gao HTS	PKD1 kinase inh	HSV replic up	HSV replic up primary fold	Insulin prom inh	Insulin prom inh cell count
CC(=O)NCCc1nc2ccccc2n1Cc1ccc(C)cc1	-2.3	108	-2	i	0.89	nt	nt
O=C(O)CC1S/C(=N/N=C/C=C/c2ccccc2)NC1=O (stereo not given)	0.7&0.1	69&99	-5&-7	i	0.97&1	-70	119
CCOc1ccc(/C(C)=N/NC(=O)C(OC)c2ccccc2)cc1 (stereo not given)	nt	99	3	i	0.95	31	110
CCc1nc(SCC(=O)Nc2ccc3c(c2)OCCO3)c2oc3ccccc3c2n1	0.0	107	4	i	0.92	-3	118
CCCCCCCCCS(=O)(=O)Nc1cc(C)ccn1	-1.1	89	5	i	1.1	-27	102
Cc1cc(C)c(-n2c(O)c(C=NCCN3CCOCC3)c(=O)[nH]c2=O)c(C)c1	-0.4	99	-14	i	1.1	nt	nt
CCc1ccc2nc(N=C(N)N)nc(C)c2c1	nt	99	-2	i	0.72	nt	nt
CCc1nnc2n1N=C(c1ccc([N+](=O)[O-])cc1)CS2	nt	99	nt	i	0.99	nt	nt
O=C(NCCCCc1ccccc1)C1CC(c2cc(C(F)(F)F)cc(C(F)(F)F)c2)=NO1 (stereo not given)	nt	101	nt	i	0.94	nt	nt
CC1CCc2c(sc(NC(=O)c3nc4ncccn4n3)c2C#N)C1 (stereo not given)	nt	88	nt	i	0.89	nt	nt
Cc1cc(NC(=O)CSc2nc3ccc(Cl)cc3[nH]2)no1	-3.1	100	-5	i	0.87	11	68
O=C(CN(c1ccc(F)cc1)S(=O)(=O)c1ccc2c(c1)OCCO2)NCC1CCCO1 (stereo not given)	-2.9	105	-8	i	0.97	-5	113
Cc1cc(C(F)(F)F)n(-c2nc(C(=O)NN)cs2)n1	nt	103	-4	i	1	nt	nt
O=C(Nc1nnc(-c2ccncc2)o1)c1cccc(N2C(=O)CCC2=O)c1	nt	102	6	i	0.98	nt	nt
O=C(Nc1ccc(-c2csnn2)cc1)C(Cl)(Cl)Cl	nt	102	nt	i	1	nt	nt
CCn1ccnc1CN(C)Cc1cn(-c2ccc(C)cc2)nc1-c1cccc(C)c1	nt	101	-4	i	0.79	nt	nt
O=C(Nc1nc(-c2ccccc2)cs1)c1cccc([N+](=O)[O-])c1C(=O)O	-0.6	91	-2	i	1.1	nt	nt
COc1ccc(NCC(O)Cn2cnc3c2c(=O)n(C)c(=O)n3C)cc1 (stereo not given)	-2.6	100	-10	i	0.99	-8	78
COc1cc(C2c3c(oc4c(C)cc(C)cc4c3=O)C(=O)N2Cc2cccnc2)cc(OC)c1OC (stereo not given)	-2.3	nt	-6	nt	nt	3	79
CCOC(=O)c1ccc(NC(=S)N(CCN2CCCCCC2)Cc2cccs2)cc1	nt	97	-6	i	0.86	nt	nt
Clc1cncc(Cl)c1NNc1c2ccccc2nc2ccccc12	-0.1	103	2	i	1	-6	131
Cc1ccccc1NC(=O)c1c(C)nc(SCC(=O)OCc2ccccc2)c(C#N)c1-c1ccc(F)cc1	0.1	101	11	i	0.97	nt	nt
N#C/C(=C(/O)CCl)c1nc(-c2ccccc2)cs1	nt	100	nt	i	1.1	nt	nt
Cc1noc(C)c1COC(=O)c1cc(=O)[nH]c2ccccc12	-2.7	98	2	i	0.91	9	98
COc1cc(-c2c(C#N)c(N)nc3c2CCCC3)ccc1O	0.2	101	18	i	0.82	-25	100
COc1ccc(CNC(=O)COc2ccc(F)cc2)cc1	nt	100	1	i	0.95	nt	nt
O=C(Cn1cc(C(F)(F)F)cc(Cl)c1=O)Nc1ccc(N2CCOCC2)cc1	nt	99	-4	i	0.96	nt	nt
Cc1cc(O)c(/C=N/Nc2ccccc2Cl)c(=O)o1	-0.6	98	4	i	0.9	nt	nt
CC(=O)c1ccc(NC(=S)NNC(=O)c2ccccc2[N+](=O)[O-])cc1	nt	102	2	i	0.94	-32	117
Cc1ccc(S(=O)(=O)c2cc3ccccc3nc2N)cc1	nt	103	-4	i	0.9	nt	nt
O=C(Nc1cccc(C(=O)O)c1)/C(=C\c1ccccc1)NC(=O)c1cccc2ccccc12	nt	100	-2	i	1	nt	nt
C=CCn1c(O)c(CN2CCCCC2)c(C)c(C#N)c1=O	nt	98	0	i	1.2	7	119
CCn1cc(Cl)c(C(=O)N2N=C(c3ccc4ccccc4c3)CC2c2ccccc2O)n1 (stereo not given)	-2.3	27	2	i	0.8	67*	111*
Cc1ccc(NC(=S)N2CCC(N(C)CC3CCCO3)CC2)cc1 (stereo not given)	nt	100	-1	i	0.81	-29	127
CN(CCc1cn[nH]c1)C(=O)CC1C(=O)NCCN1Cc1cccc(Oc2ccccc2)c1 (stereo not given)	nt	101	-3	i	0.97	nt	nt
CN1CCc2c(sc3ncn4nc(-c5ccccc5O)nc4c23)C1	-1.5	98	-3	nt	nt	10	64
Cc1cc(CNC(=O)c2cc(-c3ccccc3)nc3ccccc23)nn1C	nt	97	-4	i	0.9	nt	nt
S=C(Nc1ccccc1)Nc1nc2ccccc2n1CCOc1ccc(Br)cc1	-1.7	103	7	i	0.79	nt	nt
O=C(c1c(F)cccc1F)N1CCC(O)(c2cccnc2)CC1	0.1	87	-6	i	0.96	-17	40
O=c1c2c3c(sc2nc(N2CCNCC2)n1CCc1ccccc1)CCCCC3	nt	97	nt	i	0.86	nt	nt
COc1cc(CNc2ccccc2SC)ccc1O	0.7	102	6	i	0.83	69	76
O=C(COC(=O)COc1cccc(Br)c1)Nc1c(Cl)cccc1Cl	-0.2	112	-1	i	1.1	-61	88
Cc1noc(C)c1CSCC(=O)NC1=NCCS1	-1.0	nt	-15	i	0.83	31	84
Cc1ccc(N2C(=O)c3ccccc3C2=O)cc1Cl	-0.4	105	5	i	0.9	-44	128
CN=C(Nc1cc(C)nn1-c1ccccc1)c1ccccc1F	-1.5	101	-10	i	1	-31	70
Cc1ncc([N+](=O)[O-])n1CCOC(=O)Nc1ccc(Cl)c(Cl)c1	-1.5	110	3	i	0.85	0	111
CC(=O)NNC(=S)NC(=O)c1ccccc1	nt	105	0	i	0.99	-7	83
O=C(CSc1ccsc1[N+](=O)[O-])Nc1cccc(F)c1	nt	93	-3	i	0.86	-9	133
O=C(NCCN1CCOCC1)Nc1cccc(Cl)c1	nt	99	-8	i	1.1	50	93
COc1ccc(CCNC(=O)CSc2nnc3ccccn23)cc1	nt	91	-7	i	0.91	nt	nt
Cc1sc(NC(=O)c2sc3nc4c(C)cccc4cc3c2N)c(C#N)c1C	2.1	99	-10	i	0.99	-22	46
Cc1ccc(C(=O)COC(=O)CNC(=O)c2ccc(N3C(=O)c4ccccc4C3=O)cc2)cc1C	-0.2	105	-4	i	1	21	146
COCC(C)n1c(SCC(=O)NNC(=O)c2ccccc2)nc2ccccc2c1=O (stereo not given)	-0.4	96	4	i	1.2	nt	nt
O=C(Nc1ccc(F)cc1F)c1cc(-c2ccco2)on1	-3.6	100	9	i	1.1	nt	nt
COc1cc(/C=N/NC(=O)COc2c(C)cc([N+](=O)[O-])cc2C)ccc1OC(=O)c1ccccc1	-2.7	107	-5	i	0.89	0	49
Nc1nc(-c2cccnc2)nn1C(=O)c1ccccc1Cl	nt	98	2	i	1	21	102
COc1ccccc1N=C1SC(C)CN1C(=O)C1CCC1 (stereo not given)	0.4	105	-2	i	0.99	-38	67
Cc1cc(N2CCCCC2)ccc1[N+](=O)[O-]	-0.4	112	-16	i	1	-17	153
CC(NC(=O)c1cnc2n(c1=O)CCS2)c1ccccc1 (stereo not given)	-3.6	97	-2	i	1	36	106
CS(=O)(=O)N(CC(=O)Nc1cccc(Cl)c1)c1ccccc1Cl	-2.0	104	-3	i	0.76	1	85

Going on with the list.
SMILES	GALR2 ag	RGS16-Gao HTS	PKD1 kinase inh	HSV replic up	HSV replic up primary fold	Insulin prom inh	Insulin prom inh cell count
COc1ccc(/C=C/C(=O)OCC(=O)Nc2c(C)cccc2C)cc1	nt	103	-3	i	0.86	nt	nt
Cc1cc(=O)[nH]c(SCc2nnnn2-c2ccc(Cl)cc2)n1	-1.2	105	-5	i	0.89	27	139
C=CCOc1c(OC)cc(Cl)cc1C1NC(=O)NC(C)=C1C(C)=O (stereo not given)	-0.9	94	2	i	1	-256	71
CCC(Sc1nncn1C)C(=O)Nc1nnc(-c2ccccc2Cl)s1 (stereo not given)	-3.7	104	-16	i	0.91	nt	nt
Cn1nc(C(=O)OCC(=O)Nc2sccc2C(N)=O)c2ccccc2c1=O	nt	98	nt	i	1.1	nt	nt
Cc1sc2ncnc(NCC(c3ccco3)N(C)C)c2c1C (stereo not given)	-1.1	101	5	i	1.1	-11	156
CCOCC(=O)Nc1cc([N+](=O)[O-])ccc1OC	nt	104	6	i	0.95	nt	nt
COc1ccc(/C=N/NC(=S)NC2CCS(=O)(=O)C2)cc1 (stereo not given)	-1.7	112	2	i	0.99	nt	nt
N/C(=N\OC(=O)CCCCCN1C(=O)c2ccccc2C1=O)c1ccccc1	-2.1	121	-3	i	0.94	21	87
O=c1oc2ccccc2c2c1ncn2CCN1CCOCC1	-1.1	102	-11	i	1	33	81
CCCSc1nc2cc(C)c(C)cc2n1CC(O)CO (stereo not given)	nt	97	0	i	0.84	nt	nt
